High-throughput results deposited in PubChem BioAssay by National Center for Advancing Translational Sciences (NCATS).
Cruzain noTriton: inhibitors of Trypanosoma cruzi cruzain without detergent; 200,000 compounds, 2.3% hits; AID 1476; P25779; purified cruzain, Z-FR-AMC fluorescence, no detergent; Potency, µM, inactives show max response, negative = inhibition, most hits filed as inhibitors; active = well fitted curve in the direction sought with a large enough effect; inconclusive = small, poorly fitted or top-dose-only effect, or another doubt; inactive = no such curve, though single readings can be large; an effect the other way counts as inactive or inconclusive;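 note: plate controls were enzyme without inhibitor for no effect and buffer without enzyme for full effect; nearly all actives have a fitted effect of over 40% in size; top concentration of the series not given in the record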
Target sequence (P25779 123-467 limits assumed): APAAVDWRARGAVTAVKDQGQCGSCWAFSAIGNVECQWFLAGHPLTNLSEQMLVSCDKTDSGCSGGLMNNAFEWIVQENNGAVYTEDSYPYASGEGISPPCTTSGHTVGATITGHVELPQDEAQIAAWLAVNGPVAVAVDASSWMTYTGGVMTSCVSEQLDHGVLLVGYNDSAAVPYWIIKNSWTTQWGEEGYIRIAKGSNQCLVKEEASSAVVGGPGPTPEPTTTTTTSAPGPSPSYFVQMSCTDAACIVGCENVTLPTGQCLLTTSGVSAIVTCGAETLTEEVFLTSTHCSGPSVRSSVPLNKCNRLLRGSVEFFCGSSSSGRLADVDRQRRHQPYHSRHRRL
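Purified cruzain at 1.5 nM, pre-incubated 15 min with compound at room temperature in 100 mM sodium acetate pH 5.5, 5 mM DTT, 0.00005% Triton X-100. Reaction started with 2 uM Z-FR-AMC; AMC fluorescence increase over 60 s gives rate.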
LASV entry inh: inhibitors of Lassa virus binding or cell entry; Lassa virus pseudotype entry inhibition, cell reporter; control for the full effect not named in the record; Potency, µM (titrated, usually from 37.9 µM), for inactives: at the highest dose activity change, negative = inhibition, actives largely listed as inhibitors; 300,000 compounds, 1.2% hits; AID 540256; active means well fitted inhibition curve with a large enough effect; inconclusive means small, poorly fitted or top-dose-only effect, or effect the other way; inactive means flat fitted curve, though single readings scatter; tested in HEK293 cells; note: % is set by controls: 0 for no effect and ±100 for the full control effect; nearly all actives have a fitted effect of over 50% in size; luciferase read-out
RE007 growth inh: less growth of the S. pombe RE007 Vpr strain | S. pombe RE007 Vpr strain, BacTiter-Glo ATP luminescence, 24 h; control for the full effect not named in the record | Potency, µM (series often up to 92.2 µM), inactives show top-dose activity change, negative = less growth | 360,000 compounds, 0.21% hits | AID 651644; active = well fitted falling curve with a large enough effect; inconclusive = small, poorly fitted or top-dose-only effect; inactive = no such curve, though single readings can be large or run the other way;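 note: % is set by controls: 0 for no effect and ±100 for the full control effect; nearly all actives have a fitted effect of over 50% in size; the assay follows cell death caused by Vpr and the record does not say whether a fall means rescue or toxicity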
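Fission yeast RE007 carrying one integrated HIV-1 vpr copy, seeded at OD 0.01 in PMG+AL medium with 23 nL pinned compound. Grown 24 h at 30 degrees; viability read by BacTiter-Glo luminescence after 5 min.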
Cruzain inh Det: blocks cruzain activity in presence of Triton detergent. 200,000 compounds, 0.43% hits. purified cruzain, Z-FR-AMC fluorescence, 0.01% Triton. Potency, µM, without a hit: max response, negative = inhibition, hits mostly inhibitors. P25779; active = well fitted curve in the direction sought with a large enough effect; inconclusive = small, poorly fitted or top-dose-only effect, or another doubt; inactive = no such curve, though single readings can be large; an effect the other way counts as inactive or inconclusive;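 note: plate controls were neutral wells for no effect and buffer without enzyme for full effect; nearly all actives have a fitted effect of over 40% in size; top concentration of the series not given in the record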
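Compounds were screened in titration against cruzain (1.5 nM) with 0.01% Triton X-100 to counter colloidal aggregation. Activity was the AMC fluorescence increase over 60 s after adding 2 uM Z-FR-AMC at pH 5.5.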
SARS PLpro yeast: SARS-CoV PLP inhibition in yeast | 330,000 compounds, 0.19% hits | Potency, µM (titrated, usually from 32.9 µM), for inactives: at the top dose activity, positive = growth rescue | AID 485353 | S. cerevisiae expressing SARS-CoV PLpro, growth rescue; control for the full effect not named in the record; note: 0% is about no effect; nearly all actives have a fitted effect of over 55% in size; growth read by luminescence after 48 h
StopGo reporter: FMDV 2A StopGo reporter, luciferase signal; human cells with a luciferase reporter of 2A StopGo recoding; control for the full effect not named in the record; Potency, µM (highest dose often 57.9 µM), for the others: at the top dose signal change, negative = less light; 410,000 compounds, 1.2% hits; active = well fitted falling curve with a large enough effect; inconclusive = small, poorly fitted or top-dose-only effect; inactive = no such curve, though single readings can be large or run the other way; tested in HEK293T cells; note: % is set by controls: 0 for no effect and ±100 for the full control effect; nearly all actives have a fitted effect of over 45% in size; luciferase light after 4 h
MARV entry inh: blocks Marburg virus binding to or entry into cells; Potency, µM (series often up to 37.8 µM), inactives show at the top dose activity change, negative = inhibition, hits mostly inhibitors; Marburg virus pseudotyped entry inhibition, cell reporter; control for the full effect not named in the record; about a third of the inactives were read at about 46 µM; AID 540276; 300,000 compounds, 1.8% hits; active = well fitted inhibition curve with a large enough effect; inconclusive = small, poorly fitted or top-dose-only effect, or effect the other way; inactive = flat fitted curve, though single readings scatter; tested in HEK293 cells; about a fifth of its hits are not listed in these tables; note: % is set by controls: 0 for no effect and ±100 for the full control effect; luciferase read-out
NS1 function inh: inhibitors of influenza NS1 protein function; S. cerevisiae slowed by influenza A NS1, growth recovery by OD600; Potency, µM (doses to about 46.1 µM), without a hit: at the top dose activity, positive = more growth; 270,000 compounds, 0.4% hits; AID 2326; note: actives are rising curves; nearly all actives have a fitted effect of over 50% in size
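Read-out: OD600 growth recovery of NS1-expressing budding yeast. Cells grown overnight at 30C in -URA glucose medium, washed, resuspended and diluted 1:100 in 2% galactose assay medium, pH 6.0. Same strain lacking NS1 served as positive control.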
Active calls of the source: *; ? = inconclusive; . = not tested or not shown; & = joins results of further samples; [ ] = another dose, or the depositor's remark. Unless noted, calls come from the whole dose curve; as a rule, active means well fitted rising curve with a large enough effect; inconclusive means small, poorly fitted or top-dose-only effect; inactive means no such curve, though single readings can be large or run the other way. Potency is the fitted concentration of half-maximal effect.

SMILES | Cruzain noTriton | LASV entry inh | RE007 growth inh | Cruzain inh Det | SARS PLpro yeast | StopGo reporter | MARV entry inh | NS1 function inh
COc1ccc(CNC(=O)CS(=O)(=O)Cc2nc(-c3cccc(OC)c3)oc2C)cc1 | . | . | -4% | . | -5% | ? | . | 5%
Cc1c(CNC2CCCC2)c(C(=O)O)c(C)n1Cc1ccccc1 | -5% | 3% | 25% | -1.8% | 23% | 0% | ? | -2%
CC(=O)c1ccc(N2Cc3ccccc3/C2=N\C(=O)Nc2ccc(Cl)cc2)cc1 | -4% | 26% | 6% | -3.9% | -20% | 8% | ? | ?
CCCCN1C(=O)C(O)(CC(=O)c2ccco2)c2cc(Br)ccc21 (stereo not drawn) | -1% | ? | -1% | -2.7% | 1% | -7% | ? | -30%
CCC1Sc2ccccc2N(CC(=O)NC2CC2)C1=O (stereo not drawn) | . | 10%[46.1 µM] | 14% | . | 8% | 7% | 0%[46.1 µM] | .
CCc1nnc(NC(=O)CSc2nc3c([nH]c4ccccc43)c(=O)n2-c2cc(C)cc(C)c2)s1 | -8% | -5%[46.1 µM] | . | -1.3% | . | -12% | . | .
CC(c1ccccc1)N1C(=O)c2ccccc2C1O (stereo not drawn) | -3% | . | 3% | -1.2% | -2% | -7% | . | 1%
Cc1ccnc(NC(=O)CN2C(=O)c3ccccc3C2=O)c1 | . | -1%[46.1 µM] | 0% | . | -4% | -14% | 2%[46.1 µM] | .
CCOc1cc(/C=N/N=C(/N)c2nonc2N)cc(Br)c1OCc1ccc(Cl)cc1 | 4µM* | -25% | -12% | 2.4% | 2% | -23% | ? | -1%
O=S(=O)(NC1CC1)c1ccc(S(=O)(=O)N(Cc2ccccn2)C2CC2)cc1 | . | . | 12% | . | 0% | 0% | . | ?
O=C(N/N=C/c1cccs1)c1cccc2cc[nH]c12 | ? | 0% | 1% | -6.7% | 3% | 0% | ? | 16%
COCCNC(=O)C(c1cccs1)N(C(=O)Cn1nnc2ccccc21)c1cccc(C)c1 (stereo not drawn) | 10% | -19% | -4% | 2.3% | 0% | 44%[activator] | 2%&3% | -6%
COc1ccc(Cc2nnc(Nc3c(C)cccc3C)o2)cc1OC | . | -10%[46.1 µM] | 3% | . | -1% | -5% | ? | ?
CCCCCC(=O)NNC(=O)Nc1ccccc1 | 6% | 9% | -3% | -1.4% | 16% | -2% | -3% | -2%
COc1ccc2nc(NNC(=O)COc3ccccc3)sc2c1 | . | 12% | 20% | . | 1% | 10% | 1%[14.2 µM] | 4%
CC(NC(=O)CSc1n[nH]c(=O)n1C1CC1)C12CC3CC(CC(C3)C1)C2 (stereo not drawn) | -5% | -13% | 0% | 3.4% | 0% | 3% | ? | -3%
C[N+]1(CC(O)c2ccccc2)CCCCCC1 (stereo not drawn) | . | . | 4% | . | 6% | 5% | . | 12%
O=C(Nc1ccc(F)cc1)c1cc(S(=O)(=O)N2CCOCC2)cs1 | . | . | -8% | . | 0% | -24% | . | -1%
O=C(O)C(Cc1cc(Cl)ccc1Cl)Sc1nc2ccccc2[nH]1 (stereo not drawn) | . | . | 8% | . | 2% | -11% | . | -2%
COc1ccccc1N1CCN(CCCNC(=O)c2cnn(-c3ccc(C)c(C)c3)c2C2CCN(C(=O)OC(C)(C)C)CC2)CC1 | -6% | ? | . | -3.2% | . | -13% | . | .
COc1ccc(NC(=O)CSc2nc(O)c(C/C=C/c3ccccc3)c(=O)[nH]2)cc1 | 11% | 3%[46.1 µM] | . | -7.4% | . | 19% | -5%[46.1 µM] | .
CSc1nc2ncnc(N)c2[nH]1 | . | 24% | -2% | . | 3% | -1% | 6% | 0%
C=CCn1c(COc2cc(C)ccc2C(C)C)nnc1SCC(=O)c1c(N)n(C)c(=O)n(C)c1=O | ? | -26% | 1% | -3.4% | -11% | ? | 27% | 6%
CCN(CC)C(=O)c1ccccc1NC(=O)CN1C(=O)c2ccccc2C1=O | . | 10% | -5% | . | 1% | -5% | 7%[46.1 µM] | -3%
CC1=C(C(=O)OC(C)C)C(c2coc3ccccc3c2=O)C2=C(CCCC2=O)N1 (stereo not drawn) | 1% | 0% | -6% | 5.2% | 0% | -19% | 0% | 4%
CCCn1c(C(Cc2ccccc2)NC(=O)COC)nc2ccccc21 (stereo not drawn) | 6% | . | 4% | -1.5% | 4% | -11% | 1% | -10%
CCOC(=O)C1CCN(Cc2nnc(-c3cccc(Br)c3)o2)CC1 | . | . | -12% | . | -1% | -17% | . | -1%
O=C(Nc1ccc2c(c1)OCCO2)C1CC(c2ccccc2Cl)=NO1 (stereo not drawn) | . | -25%[46.1 µM] | -20% | . | 0% | 16% | 0%[46.1 µM] | -2%
CC(=O)c1cccc(OCc2cc(C(=O)N(C)Cc3cnccn3)no2)c1 | . | ? | 1% | . | -1% | 39%[activator] | ? | 9%
CCOc1ccccc1NC(=O)Cn1c(=O)n(-c2ccc(C)c(C)c2)c(=O)c2c(C)c(C(=O)N(C)C)sc21 | 16% | 7%[46.1 µM] | . | 6.9% | . | -19% | . | .
CCOC(=O)C1CCN(S(=O)(=O)c2nc3nc(C)cc(C)n3n2)CC1 | 3% | 21% | 5% | 4.3% | 4% | -2% | 6% | 8%
CCn1c(CNC(=O)c2cccs2)nnc1SCC(=O)Nc1cc(Cl)ccc1C | -1% | -1% | -2% | 1.5% | 4% | 0% | ? | 3%
CC(C)n1c(SCC(=O)c2ccc(F)cc2)nc2c(sc3ccccc32)c1=O | 11% | 27%[46.1 µM] | . | 4.6% | . | -12% | . | .
Cc1c(Cl)cccc1NC(=O)CCCn1nc([N+](=O)[O-])cc1C | . | -6%[46.1 µM] | -13% | . | 4% | -25% | 8%[46.1 µM] | .
COc1cc(OC)c(NC(=O)c2oc3ccc4c(c3c2C)C(=O)CC(C)(C)O4)cc1Cl | 0% | 21%[46.1 µM] | . | -1.1% | . | 2% | . | .
Brc1ccc(/C=N/Nc2ccc3ccccc3n2)cc1 | -21% | ? | ? | -9.2% | -8% | 0% | -20% | -11%
CCOc1ccc(N(C(=O)CNC(=O)c2ccco2)C(C(=O)NC2CCCC2)c2ccco2)cc1 (stereo not drawn) | . | ? | -7% | . | 5% | -9% | 21%[46.1 µM] | 0%
O=C(CCn1nc(-c2ccccc2)c2ccccc2c1=O)Nc1cccnc1 | . | . | 7% | . | 0% | -5% | . | 0%
Cc1ccccc1NC(=O)Cc1nc(COC(=O)CCOc2ccccc2)cs1 | . | 0% | -7% | . | 0% | -11% | -2% | 2%
CCCOc1ccc(NC(=O)c2cc3cc(C)ccc3[nH]2)cc1 | . | . | -14% | . | -5% | 17% | . | 5%
O=C(CCCOc1ccccc1)Nc1nncs1 | 0% | 5% | -1% | 0.3% | 3% | 0% | -24% | -1%
CN(C)S(=O)(=O)N1CCC(CO)(Cc2cccc(C(F)(F)F)c2)CC1 | . | ? | -14% | . | 1% | ? | 3%[46.1 µM] | 2%
CS(=O)(=O)N(CC(=O)Nc1ccccc1C(=O)NCc1ccccc1)c1ccc2c(c1)OCCO2 | 2% | -1% | -1% | -8.5% | 16% | 4% | 2% | ?
CCN(CC)CCSc1nnc2c3cc(F)ccc3n(C)c2n1 | 13µM* | 0%[46.1 µM] | . | 16µM* | . | 1% | ? | .
O/N=C/c1cn(-c2ccc(Cl)cc2)nn1 | . | ? | -13% | . | -1% | 27% | ? | .
CCN(CC)CCCNC(=O)Cn1nc(-c2ccccc2)ccc1=O | 11% | 0% | 7% | 3.5% | 1% | 2% | -8% | 9%
CC(C)(Cc1ccccc1)NC(=O)C(=O)c1cn(CC(=O)N2CCOCC2)c2ccccc12 | . | -2% | 0% | . | 2% | 15% | -10% | 6%
COc1cc(C=O)ccc1OCC(=O)N1CCOCC1 | -3% | 17% | -5% | 1.2% | 0% | -5% | 9%[46.1 µM] | -1%
COc1ccc(-c2[nH]ncc2/C=N\NS(=O)(=O)c2ccc(Cl)cc2)cc1 | -2% | -7% | -5% | -9.0% | 0% | -26% | 5% | 7%
COC(=O)c1cccc(NC(=O)c2cc3ccccc3o2)c1 | . | . | -13% | . | -17% | 19% | . | -73%

Given with two lines to a compound: part of the list above
Every second line gives: Cruzain noTriton	LASV entry inh	RE007 growth inh	Cruzain inh Det	SARS PLpro yeast	StopGo reporter	MARV entry inh	NS1 function inh
CCOC(=O)C1CCN(Cc2nnc(-c3cccc(Br)c3)o2)CC1
    .	.	-12%	.	-1%	-17%	.	-1%
O=C(Nc1ccc2c(c1)OCCO2)C1CC(c2ccccc2Cl)=NO1 (stereo not drawn)
    .	-25%[46.1 µM]	-20%	.	0%	16%	0%[46.1 µM]	-2%
CC(=O)c1cccc(OCc2cc(C(=O)N(C)Cc3cnccn3)no2)c1
    .	?	1%	.	-1%	39%[activator]	?	9%
CCOc1ccccc1NC(=O)Cn1c(=O)n(-c2ccc(C)c(C)c2)c(=O)c2c(C)c(C(=O)N(C)C)sc21
    16%	7%[46.1 µM]	.	6.9%	.	-19%	.	.

(next part)
SMILES | Cruzain noTriton | LASV entry inh | RE007 growth inh | Cruzain inh Det | SARS PLpro yeast | StopGo reporter | MARV entry inh | NS1 function inh
Cc1c(N(C)C(=O)c2ccccc2F)c(=O)n(-c2ccccc2)n1C | -5% | -8% | 2% | 3.7% | -2% | 4% | -9% | 5%
Fc1ccc(C2=CCN(C(c3ccc(Cl)cc3)c3nnnn3Cc3ccccc3)CC2)cc1 (stereo not drawn) | ? | ? | -22% | -6.0% | -10% | -13% | ? | 10%
Cc1ccc(NC(=O)c2cc3c(=O)n(Cc4cccnc4)ccc3nc2C)cc1F | -12% | 4%[46.1 µM] | . | -2.0% | . | -3% | . | .
COc1cc(C=C2C(=O)OC(C)(C)OC2=O)ccc1OCC(=O)Nc1ccccc1 | . | . | -12% | . | 0% | 59%[activator] | . | 4%
O=C(Nc1ccc(Cl)cc1)c1ccc(Br)cc1F | . | . | -9% | . | -1% | 52%[activator] | . | -3%
